High-throughput results: PubChem BioAssay, several laboratories
HNF4A DNA FP = change in binding of human HNF4 alpha to DNA; P41235; HNF4a-FITC DNA binding, fluorescence polarization, 1 h; activity change, % at 10 µM; hit rate 0.3% among 360,000; AID 1224865; in the data active = activity change above about 30%, passing the limit was not always enough;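 note: controls were the assay level and a saturating level of protein; the project sought stronger binding though the title names inhibitors; some compounds called inactive have numbers as strong as hits; positive values seem to mean higher polarization but the record does not say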
Target sequence (P41235 whole entry, looked up): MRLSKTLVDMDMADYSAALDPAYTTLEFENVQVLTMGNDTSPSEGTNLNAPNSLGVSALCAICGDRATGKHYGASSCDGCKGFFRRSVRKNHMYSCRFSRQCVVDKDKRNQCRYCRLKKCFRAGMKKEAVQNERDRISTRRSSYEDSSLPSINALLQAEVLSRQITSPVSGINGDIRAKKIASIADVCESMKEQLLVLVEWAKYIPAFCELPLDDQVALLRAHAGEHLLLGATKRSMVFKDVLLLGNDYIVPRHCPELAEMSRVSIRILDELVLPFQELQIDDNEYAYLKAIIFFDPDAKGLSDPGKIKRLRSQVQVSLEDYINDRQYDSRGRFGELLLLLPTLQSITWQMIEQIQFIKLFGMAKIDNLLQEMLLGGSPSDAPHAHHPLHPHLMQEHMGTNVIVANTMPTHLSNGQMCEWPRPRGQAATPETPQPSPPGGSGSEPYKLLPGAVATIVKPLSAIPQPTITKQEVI
Vif TR-FRET = HIV-1 Vif–A3G interaction blockers – biochemical, TR-FRET, GST-Vif 1-94, biotin-A3G peptide, dose response retest, primary screen (AID 1117319) | hit rate 0.57% among 260,000 | TR-FRET GST-Vif / biotin-A3G peptide binding; higher % means a stronger effect; test concentration not given here; strong numbers were not always called active | one-dose inhibition, %; IC50 in µM for titrated hits;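 active = above the screen mean plus three standard deviations and confirmed in dose response; inconclusive = results disagree or hit not tested in dose response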;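 note: Vif residues 1-94 fused to GST binding biotinylated APOBEC3G peptide 110-148; 0% = full assay without inhibitor and 100% = GST in place of GST-Vif; retest series ran down from 100 µM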
RanGTP-Impb inh = inhibitors of RanGTP-importin-beta interaction, primary screen, biochemical, FRET, CFP-Ran, YFP-importin-beta, homogeneous; cell-free CFP-Ran/YFP-importin-beta FRET ratio; AID 2216; hit rate 1.1% among 300,000; inhibition, % (no concentration beside the values);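 active = most replicates above 15%; inconclusive = exactly half above 15%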;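 note: 0% = DMSO wells and 100% = Ran loaded with GDP instead of GTP; wells of about 40 µL received 100 nL stock; the first replicate is given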
B2AR ag = activates human beta-2 adrenergic receptor causing internalization. P07550. response, % (no concentration beside the values). hit rate 0.43% among 340,000. Am2.2-beta2AR cells, FAP receptor internalization, flow cytometry; reference of the scale not given here. AID 504454;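 active = response above a set limit, near 3 SD of response in nonfluorescent compounds, cut at about 42% in these data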;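 note: stock transfer was 100 nL into about 11 µL; a reference agonist was the positive control; negative values mostly stem from fluorescent compounds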
Target sequence (P07550 whole entry, looked up): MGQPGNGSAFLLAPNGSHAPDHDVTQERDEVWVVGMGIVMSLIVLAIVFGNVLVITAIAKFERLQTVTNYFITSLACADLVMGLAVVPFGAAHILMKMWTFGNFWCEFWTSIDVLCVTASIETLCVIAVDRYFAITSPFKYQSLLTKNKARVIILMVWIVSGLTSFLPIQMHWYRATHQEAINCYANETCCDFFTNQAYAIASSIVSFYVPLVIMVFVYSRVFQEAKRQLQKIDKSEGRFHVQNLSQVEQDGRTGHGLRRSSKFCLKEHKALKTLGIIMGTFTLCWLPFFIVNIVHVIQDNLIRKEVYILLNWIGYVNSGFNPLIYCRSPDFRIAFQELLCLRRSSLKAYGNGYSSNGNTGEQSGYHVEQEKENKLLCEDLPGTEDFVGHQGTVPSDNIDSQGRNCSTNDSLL
Calb FLC = C. albicans growth modulation with fluconazole; AID 1979; hit rate 0.57% among 300,000; growth inhibition, % (no concentration beside the values); C. albicans CaCi-2 (fluconazole-resistant clinical isolate) + fluconazole, Alamar Blue growth, 48 h;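 active = most replicates above 75%; inconclusive = exactly half above 75%; inactive = most below 75%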;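 note: all wells also contain fluconazole at 8 µg/ml as a sub-toxic cotreatment; 0% = median of DMSO wells and 100% = median of geldanamycin control wells; wells of about 8 µL received 7.5 nL stock; the first replicate is given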
LANA-H2B inh = blocks KSHV LANA binding to histone H2A/H2B | Q9QR71 | cell-free LANA-H2A/H2B peptide, fluorescence polarization | inhibition, % (test concentration not listed) | hit rate 0.6% among 320,000 | AID 2629; in the data active = inhibition mostly above about 10%, no sharp cut-off; inactive = mostly below about 6.7%;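 note: stock transfer was 7.5 nL into about 10 µL; 0% = median of vehicle wells and 100% = median of positive control wells; one replicate is shown; the record names a cut of 25% in any replicate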
ALR H2O2 inh = blocks human ALR sulfhydryl oxidase activity; AID 485317; inhibition, % (test concentration not listed); hit rate 3.8% among 290,000; purified ALR, DTT oxidation, H2O2 HRP-luminol luminescence;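 active = mean and each replicate at 75% or more; inconclusive = only one of the two met; inactive = neither met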;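 note: stock transfer was 7.5 nL into about 7.5 µL; 0% = neutral wells and 100% = wells with inactivated enzyme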
Target sequence (P55789 whole entry, looked up): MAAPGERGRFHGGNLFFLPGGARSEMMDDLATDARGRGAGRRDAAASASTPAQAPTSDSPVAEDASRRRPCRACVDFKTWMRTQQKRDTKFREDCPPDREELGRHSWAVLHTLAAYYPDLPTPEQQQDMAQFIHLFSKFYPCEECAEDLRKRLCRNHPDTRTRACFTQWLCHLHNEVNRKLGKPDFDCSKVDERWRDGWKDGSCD
Starred values were filed as active, the others as inactive; ? = inconclusive; / = no result given.

SMILES	HNF4A DNA FP	Vif TR-FRET	RanGTP-Impb inh	B2AR ag	Calb FLC	LANA-H2B inh	ALR H2O2 inh
Cc1cccc(OCC(=O)Nc2ccccc2N2CCN(C(=O)C(C)C)CC2)c1C	4.0	1%	-1.5	8	15	1.2	-6
CCCCc1nc2sc3c(SCCN(C)C)ncnc3c2c2c1CCC2	6.8	-1%	?	36	-3	-3.2	-1
O=C(O)CCNC(=O)COc1ccc2c3c(c(=O)oc2c1)CCCC3	-1.7	-9%	-2.5	5	-6	2.8	-14
Nc1nnc(SCCCC(=O)c2ccccc2)s1	0.4	28%	-1.6	5	18	-4.0	-5
COC(=O)C1CC(=O)N(c2ccc(C)cc2)C1 (stereo not given)	3.8	-2%	1.0	5	?	4.6	-13
CCc1cccc(C)c1NC(=O)c1ccccc1	-1.6	/	?	-3	-11	2.6	6
CN(CC(=O)Nc1ccc(Cl)c(C(F)(F)F)c1)C(=O)C1CC(=O)N(CCc2ccccc2)C1 (stereo not given)	0.4	-8%	/	-4	/	/	/
Cc1ccc(NC(=O)c2cc(CC(C)C)nc3ccccc23)cc1	2.9	/	-2.6	2	2	-8.8	-17
COc1ccc(Cc2nnc(NC(=O)C3CC(=O)N(c4ccccc4)C3)s2)cc1OC (stereo not given)	3.3	-1%	1.3	7	-2	-1.2	-12
COc1cccc(NC(=O)c2ccn(C)n2)c1	-0.2	/	1.4	-2	14	3.1	4
Cc1ccc(NC(=O)c2ccc3c(c2)[nH]c(=O)n3C(C)C)cc1	2.2	-3%	?	7	48	4.1	-9
Cc1cc(OC(C)C(=O)NC2CC(C)(C)NC(C)(C)C2)c2c(C)cc(=O)oc2c1 (stereo not given)	-3.6	/	8.5	2	5	-4.6	-4
NC(=O)c1ccc(NC(=O)COC(=O)CCC2CCCCC2)cc1	-0.2	/	/	3	/	-0.9	-3
COC(=O)Cn1cc(C(=O)OC)c2ccccc21	-0.9	0%	0.7	6	-2	4.0	1
CCOC(=O)/C=C/c1ccccc1S(=O)(=O)NC(C)(C)C	2.3	/	-0.6	3	-1	3.6	3
NC(=O)c1ccc([N+](=O)[O-])cc1SCc1ccccc1	0.7	?	4.2	-8	4	-9.1	-8
CCN(Cc1ccccc1)S(=O)(=O)c1ccc(F)cc1	1.4	/	-2.8	8	1	0.6	-10
O=C(COC(=O)c1ccc2c(c1)OCO2)Nc1ccccc1OC(F)F	-0.5	/	/	-2	/	-1.4	-10
CCOc1ccccc1NC(=O)CSc1ccc([N+](=O)[O-])cc1	0.2	-4%	0.5	4	47	/	/
O=C(NC1CCCC1)C(c1ccc(F)cc1)N(Cc1ccc(Cl)cc1)C(=O)CCl (stereo not given)	0.1	/	-0.9	3	-8	-0.1	-2
Cc1nnc2nc(-c3ccccc3)nc(-c3ccccc3)n12	1.5	2%	2.3	-9	9	1.7	/
CN(Cc1ccc(OC(F)F)cc1)C(=O)C1CCN(S(=O)(=O)c2ccc3c(c2)OCCO3)CC1	-0.5	10%	/	10	/	/	-4
COc1ccc(/C=C2\CCC(C3CCCC3)C2=O)cc1 (stereo not given)	2.1	-2%	-2.4	-1	-5	3.6	0
Cc1ccc(NC(=O)C2CCN(c3cnccn3)CC2)cc1	-3.7	-4%	-4.6	15	9	1.2	0
COc1cccc(C2C(C#N)=C(N)Oc3c2oc(CO)cc3=O)c1OC (stereo not given)	1.4	-2%	2.2	-1	15	3.9	44

The list goes on.
SMILES	HNF4A DNA FP	Vif TR-FRET	RanGTP-Impb inh	B2AR ag	Calb FLC	LANA-H2B inh	ALR H2O2 inh
COc1cc(O)ccc1C=O	-1.6	-1%	0.0	2	6	-5.1	-3
Cc1ccc2cc(CN(Cc3ccco3)C(=O)c3cccs3)c(=O)[nH]c2c1	3.8	9%	0.0	-8	3	0.3	5
Cc1ccc(S(=O)(=O)Cc2ccc(C(=O)N3CCN(Cc4ccccc4)CC3)o2)cc1	-5.5	?	3.7	-8	10	0.6	94*
O=C(CS(=O)(=O)Cc1ccccc1)Nc1ccccn1	-0.8	13%	1.8	4	3	9.1	-2
COc1ccc(N(CC(=O)N2CCN(C)CC2)S(=O)(=O)c2ccccc2)cc1	1.8	/	-4.0	0	1	0.4	1
CCOc1ccc(CCNC(=O)CS(=O)Cc2nc(-c3ccccc3C)oc2C)cc1OCC (stereo not given)	-2.5	/	-2.0	-5	-8	4.6	99*
O=C(NCCc1nc2ccccc2[nH]1)/C(=C/c1ccco1)NC(=O)c1ccc(Br)o1	0.7	/	-1.1	-4	37	-1.4	/
Cc1ccc2c(CC(=O)NC3=NCCS3)coc2c1	0.7	0%	-0.6	4	/	-1.5	-4
COc1ccccc1-c1cc(C(F)(F)F)n2ncc(C(=O)N3CCc4ccccc4C3)c2n1	0.5	-6%	1.3	14	6	0.0	-2
CCCCn1c(=N)n(CCOc2ccc(C)cc2)c2ccccc21	1.0	-4%	-3.8	26	-15	-0.9	-3
CCC(NS(=O)(=O)c1cnn(CC)c1)c1ccccc1 (stereo not given)	-1.7	0%	-1.3	-1	0	-5.5	0
O=C(CNC(=O)C12CC3CC(CC(C3)C1)C2)NCc1ccccc1	-0.6	-4%	/	-4	-4	-23	0
COc1ccccc1CNc1ccc2nnc(CCNC(=O)c3ccccc3)n2n1	-0.9	1%	1.1	-5	-3	1.3	-6
Cc1ccnc2c1ccc1ccccc12	2.8	-2%	-0.7	11	3	-0.5	-5
O=C1/C(=C\c2cc(Br)cc(Br)c2O)SC(=S)N1Cc1ccccc1	17	/	-5.2	-52	1	2.1	13
CN(CC(=O)Nc1cccc(Cl)c1)S(=O)(=O)c1ccc2c(c1)n(C)c(=O)c(=O)n2C	1.4	/	3.3	7	-17	0.5	24
O=C(NC(NC(=S)N1CCOCC1)C(Cl)(Cl)Cl)c1ccc(Cl)cc1 (stereo not given)	3.7	-3%	0.6	0	1	-2.0	-4
CC(=O)N1N=C(c2ccncc2)OC12CCCCC2	3.1	23%	-0.4	1	-5	2.5	-1
O=C(NCCC(=O)N1CCN(S(=O)(=O)c2ccc(F)cc2)CC1)Nc1ccccc1	-0.5	-18%	/	4	/	/	/
CC(C)(C)NC(=O)C(c1ccccc1)N(C(=O)CNC(=O)c1cccs1)c1cccnc1 (stereo not given)	-1.2	/	-0.9	1	-4	3.0	-10
O=C(Nn1c(O)c(C=C2N=c3ccccc3=N2)sc1=S)c1ccccc1	4.3	7%	-1.8	-5	-4	1.0	25
O=C(COc1cccc(OC(F)F)c1)Nc1ccc(SC(F)F)cc1	-5.5	-3%	0.1	-4	7	2.1	-14
O=C(CSc1n[nH]c(=O)n1C1CC1)NCc1ccccc1	0.9	23%	1.5	9	-19	-4.5	-3
COc1ccccc1C(=O)Nc1cccc(NC(C)=O)c1	5.5	12%	3.6	3	2	-1.2	-7
C=CCn1c(SCC(=O)Nc2nnc(C)s2)nnc1C1CC1	-3.7	/	1.6	5	-3	-2.2	3

Among those listed so far, these have a CF3 group:
SMILES	HNF4A DNA FP	Vif TR-FRET	RanGTP-Impb inh	B2AR ag	Calb FLC	LANA-H2B inh	ALR H2O2 inh
CN(CC(=O)Nc1ccc(Cl)c(C(F)(F)F)c1)C(=O)C1CC(=O)N(CCc2ccccc2)C1 (stereo not given)	0.4	-8%	/	-4	/	/	/
COc1ccccc1-c1cc(C(F)(F)F)n2ncc(C(=O)N3CCc4ccccc4C3)c2n1	0.5	-6%	1.3	14	6	0.0	-2

Back to the main list, repeating the 6 entries before the break.
SMILES	HNF4A DNA FP	Vif TR-FRET	RanGTP-Impb inh	B2AR ag	Calb FLC	LANA-H2B inh	ALR H2O2 inh
CC(C)(C)NC(=O)C(c1ccccc1)N(C(=O)CNC(=O)c1cccs1)c1cccnc1 (stereo not given)	-1.2	/	-0.9	1	-4	3.0	-10
O=C(Nn1c(O)c(C=C2N=c3ccccc3=N2)sc1=S)c1ccccc1	4.3	7%	-1.8	-5	-4	1.0	25
O=C(COc1cccc(OC(F)F)c1)Nc1ccc(SC(F)F)cc1	-5.5	-3%	0.1	-4	7	2.1	-14
O=C(CSc1n[nH]c(=O)n1C1CC1)NCc1ccccc1	0.9	23%	1.5	9	-19	-4.5	-3
COc1ccccc1C(=O)Nc1cccc(NC(C)=O)c1	5.5	12%	3.6	3	2	-1.2	-7
C=CCn1c(SCC(=O)Nc2nnc(C)s2)nnc1C1CC1	-3.7	/	1.6	5	-3	-2.2	3
O=S(=O)(c1cnc[nH]1)N1CCN(c2ccc(Cl)cc2)CC1	1.7	8%	1.9	-6	-10	1.0	/
COc1ccc(C(N)=S)cc1	0.7	-3%	-4.4	-3	-10	-1.9	14
CC(C)(CO)CNC(=O)CCc1nnc(C2(c3ccc(Cl)cc3)CCC2)o1	-2.2	-1%	1.5	-5	5	4.4	-11
O=C(CSc1nnc(-c2ccccc2)o1)NC1CCS(=O)(=O)C1 (stereo not given)	-1.9	22%	3.2	-2	4	-0.5	-4
Cc1ccc(C(O)(C(=O)NNS(=O)(=O)c2ccc(C)cc2)c2ccc(C)cc2)cc1	-1.1	?	-2.7	3	-12	-6.6	8
CC12CCC(C/C1=N/OC(=O)c1cccc([N+](=O)[O-])c1)C2(C)C (stereo not given)	-4.6	4%	2.5	-10	3	-2.8	-5
COc1ccc(/C=C/C(=O)c2ccc3c(c2)OCO3)c(OC)c1	2.1	-9%	?	-1	-1	-1.0	-7
CC(C)c1ccc(CN(C(=O)c2cc3ccccc3oc2=O)C2CCS(=O)(=O)C2)cc1 (stereo not given)	4.4	12%	-0.7	-14	-4	4.5	0
CC(C)(C)NC(=O)c1ccc(C(=O)NC(C)(C)C)cc1	/	-8%	?	/	-9	/	/
O=C(O)C1C2CCC(O2)C1C(=O)Nc1cnn(Cc2ccccc2)c1 (stereo not given)	1.9	-5%	1.5	6	-3	-6.1	-11
O=C(OCCN1CCCCC1)c1cc2ccccc2o1	5.0	26%	0.0	-5	-15	7.1	0
COCCCNC(=O)c1ccc2c(c1)ncn2-c1ccc(C)cc1C	3.5	-2%	1.0	-6	6	13	-5
CC(=O)c1cccc(OCc2cc(C(=O)N3C[C@H]4CC[C@H]3C4)no2)c1	-1.4	/	-2.1	-9	-3	/	-20
O=C(C1CCCCN1S(=O)(=O)c1ccccc1[N+](=O)[O-])N1CCOCC1 (stereo not given)	-0.8	11%	-1.0	3	2	3.5	-5
CCc1c(C)nc(SCC(=O)c2ccc(C)c(C)c2)[nH]c1=O	2.3	-4%	2.3	0	-11	1.5	-69
Cc1ccc(CNc2nc(-c3cccnc3)nc3ccccc23)cc1	1.2	/	5.1	-16	13	0.2	-11
O=C(NC1CCCC1)c1ncn[nH]1	-5.5	0%	-1.5	16	-12	-2.7	0
COc1cc(/C=N/NC(=S)NCCN2CCOCC2)cc(OC)c1OC	1.0	1%	-2.6	-4	0	9.0	9
Cc1ccc2oc(-c3cccc(N)c3)nc2c1	-4.1	/	-1.1	0	1	-1.4	-12
O=C(c1ccc2c3c(cccc13)CC2)C1CCCN(Cc2cccnc2)C1 (stereo not given)	0.7	6%	-2.9	-7	-13	0.2	-2
CC(Sc1nncn1C)C(=O)Nc1cc(C(F)(F)F)ccc1N1CCOCC1 (stereo not given)	0.7	-2%	1.8	-2	2	2.9	-3
CCCOC(=O)c1ccc2c(c1)C(=O)N(c1ccccc1)C2=O	3.1	-2%	-0.1	-3	-17	-1.9	4
C(=C\c1ccco1)/C=N/n1cnnc1	1.4	1.4µM*	-3.9	3	-3	-2.1	-6
CCc1ccc(CNC(=O)CCc2nnc(Cc3cccc(C(F)(F)F)c3)o2)nc1	0.7	/	-2.7	-199	6	0.7	-5
Nc1nnc(SCC(=O)c2ccccc2)s1	0.1	5%	-0.8	8	-4	-0.2	5
Clc1ccc(C=Cc2ccccn2)c(Cl)c1	3.4	-4%	/	-5	/	/	/
N#Cc1sc2nc(-c3ccccc3)cc(-c3ccco3)c2c1N	11	?	-65	-78	-8	-4.1	-4
